# AID923: qHTS Assay for Allosteric/Competitive Inhibitors of Caspase-1: Spectroscopic Profiling in AFC Spectral Region. AID 923, 2007. compound fluorescence, AFC spectral region (405/520 nm); almost no hit is shown here. 75,000 tested, 1.1% active. Potency, µM (titrated, usually from 57.5 µM), inactives show at the top dose fluorescence increase, actives largely listed as activators; active = well fitted activation curve with a large enough effect; inconclusive = small, poorly fitted or top-dose-only effect;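 also: potency is read from the fitted curve at half-maximal effect; 0% is about no effect; scaled to a free AFC standard on each plate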
#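 Baseline compound fluorescence (AFC region, 405 nm ex/520 nm em) taken from the intercept of kinetic reads with 50 nM caspase-1 and 5 uM Ac-WEHD-AFC; normalized to an on-plate AFC standard curve; compounds titrated up to 57 uM.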
# Resorufin autofl: resorufin region autofluorescence | Compound fluorescence, resorufin region 547/598 nm, buffer; active compounds read high | 59,000 tested, 0.04% active | max dye-equivalent concentration, M; active = above 10 nM dye equivalent; inconclusive = 1 to 10 nM; inactive = 1 nM or less; a few of its hits are not listed in these tables; also: highest value over a series up to 38 µM
#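 Dye-equivalent concentration values derive from comparing each well's 547/598 nm fluorescence against resorufin standards included on every plate. Incubation was 15 min at room temperature in 100 mM Tris, pH 8.0.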
# A647 fluor: A647 region autofluorescence | max dye-equivalent concentration, M | 59,000 tested, under 10 active | AID 592 | Compound fluorescence, A647 channel (570/671 nm), Tris buffer; active means above 1 µM dye equivalent; inconclusive means 0.1 to 1 µM; inactive means 0.1 µM or less;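 also: values scaled relative to a standard on each plate; highest value over a series up to 38 µM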
#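 Compound fluorescence was measured in 100 mM Tris buffer, pH 8.0, after 15 min at room temperature, using 570 nm excitation and 671 nm emission filters. Signal was normalized to a per-plate Alexa 647 standard curve and expressed as dye-equivalent concentration at each compound concentration.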
# A488 fluor: A488 region autofluorescence; compound autofluorescence, A488 spectral region, dye equivalency; active compounds read high; max dye equivalency, M; 59,000 tested, 0.1% active; active = above 10 nM dye equivalent; inconclusive = 1 to 10 nM; inactive = 1 nM or less; about half of its hits are not listed in these tables;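 also: highest value over a series up to 38 µM; compound alone in buffer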
#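 Readout is A488 dye-equivalent concentration, calibrated by a per-plate six-point Alexa 488 series. Compounds in 100 mM Tris buffer pH 8.0 were incubated 15 min at room temperature. Plates were imaged using 480 nm excitation/540 nm emission filters.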
# TSHR ag: TSH receptor (human) agonism; Potency, µM (series often up to 57.1 µM), without a hit: at the highest dose activation, actives largely listed as activators; 73,000 tested, 0.48% active; P16473; HEK293-CNG-TSHR cells (CNG channel as cAMP sensor), membrane potential dye, cAMP; active = well fitted activation curve of enough size with the parental cells flat; inconclusive = any curve in the parental cells; inactive = parental cells flat and receptor cells flat or falling; also: potency is read from the fitted curve at half-maximal effect; % of control where 0% means no effect; weak receptor curves with flat parental cells got no call and are not listed
# Target sequence (P16473 whole entry, looked up): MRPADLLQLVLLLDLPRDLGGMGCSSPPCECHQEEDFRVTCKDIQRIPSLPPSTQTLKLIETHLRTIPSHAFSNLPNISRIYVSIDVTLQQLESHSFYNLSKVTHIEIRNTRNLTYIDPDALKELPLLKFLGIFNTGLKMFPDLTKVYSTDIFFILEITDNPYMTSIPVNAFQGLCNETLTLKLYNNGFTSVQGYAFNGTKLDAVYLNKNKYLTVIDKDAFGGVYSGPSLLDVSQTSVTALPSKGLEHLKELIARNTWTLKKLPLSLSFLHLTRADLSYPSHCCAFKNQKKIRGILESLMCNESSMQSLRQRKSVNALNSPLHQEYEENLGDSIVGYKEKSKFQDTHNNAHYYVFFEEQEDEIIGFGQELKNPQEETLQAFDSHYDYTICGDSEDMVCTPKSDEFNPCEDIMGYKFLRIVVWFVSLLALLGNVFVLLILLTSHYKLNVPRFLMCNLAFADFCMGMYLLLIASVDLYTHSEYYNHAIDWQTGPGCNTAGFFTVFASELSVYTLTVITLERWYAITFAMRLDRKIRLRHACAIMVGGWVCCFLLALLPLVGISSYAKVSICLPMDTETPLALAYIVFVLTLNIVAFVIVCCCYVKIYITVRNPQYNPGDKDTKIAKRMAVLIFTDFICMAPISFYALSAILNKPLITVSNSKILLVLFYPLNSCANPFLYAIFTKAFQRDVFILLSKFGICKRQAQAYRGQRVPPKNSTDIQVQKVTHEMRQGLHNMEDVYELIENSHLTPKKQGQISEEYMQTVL
#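 HEK 293 cells stably expressing TSHR and a cAMP-gated CNG channel; parental CNG-only cells as counterscreen. Cells preloaded 60 min with membrane potential dye plus 100 uM RO 20-1724, then compound 30 min; fluorescence read at 590 nm.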
# * hit, by the source's call; i = inactive; ? = inconclusive; nt = not tested or not shown; & = joins results of further samples; [ ] = remark or other dose. The list is partial, so the mix of outcomes need not match the whole.
SMILES,AID923,Resorufin autofl,A647 fluor,A488 fluor,TSHR ag
CC1CC(C)CN(CCCNC(=O)C2CCCN(c3nnc(N4CCCC4=O)s3)C2)C1 (centres undefined),-0.5%,i,1e-09,i,-3%
O=C(O)C1C(c2ccccc2)C(C(=O)N2CCOCC2)C1c1ccccc1 (centres undefined),-1.8%,i,2.5e-08,i,-5%
O=C(O)c1cccc(S(=O)(=O)N2Cc3ccccc3C2)c1,-0.9%,i,1e-09,i,-2%
O=C(Nc1ccc(Cn2nnc3ccccc32)cc1)c1ccco1,0.6%,i,1e-09,i,10%
O=C(NCc1cccnc1)c1ccc(COc2ccccc2Br)o1,-1.2%,i,1.9e-09,i,19%
NC(=O)CSc1nnnn1CC(CC(=O)O)c1ccccc1 (centres undefined),0.1%,i,1e-09,i,?
NC(=O)N/N=C\c1ccc([N+](=O)[O-])o1,-0.4%[25.7 µM],i,6.2e-09,i,2%[25.6 µM]
OCCSc1c(F)c(SCCO)c(SCCO)c(F)c1SCCO,-2.7%,i,1e-09,i,-2%
COC(=O)C1=C(C)[C@@H](O)[C@@H](C)[C@H](c2c(OC)c(OC)c(C)c(OC)c2OC)O1,14%[11.5 µM],nt,nt,nt,-4%[11.4 µM]
Cc1cc(C)cc(OCc2nnc(SCC(=O)N3CCN(c4ccccc4)CC3)o2)c1,-0.8%,i,7.6e-08,i,23%
COc1cccc(C(=O)CSc2nc3ccccc3n2CC(=O)N2CCOCC2)c1,0.5%,i,3.1e-08,i,-3%
Cc1ccc(S(=O)(=O)NC(C)(C)CSc2nncn2N)cc1,-0.1%,i,1e-09,i,-12%
O=C(N1CCOCC1)N1c2ccccc2CC(N2CCOCC2)c2ccccc21 (centres undefined),-1.7%,i,5.5e-09,i,-2%
CCOC(=O)c1cc2n(n1)C(C(F)(F)F)CC(C)N2 (centres undefined),-0.9%,i,1e-09,i,-2%
c1ccc(-c2noc(CSc3nc4ccccc4o3)n2)cc1,3.1%,i,3.5e-09,i,?
Cn1c(C(=O)OCC(=O)NCC2CCCO2)cc2sccc21 (centres undefined),1.1%,i,1e-09,i,1%
CN1CCN(c2nc3c(c(=O)n(C)c(=O)n3C)n2Cc2cccc3ccccc23)CC1,nt,i,3.7e-09,i,nt
CCn1nnnc1NCc1ccc(N2CCCC2)cc1,-0.2%,i,1.8e-08,i,0%
Cc1cc(NCCN2CCOCC2)n2ncc(-c3ccccc3)c2n1,0.3%,i,2.4e-08,i,0%
CC(C)(C)C1=C[C@@H](CO)C[C@@H](CO)C1,1.2%,i,9.7e-09,i,11%
CCOC(=O)c1ccccc1NC(=O)CCNC(=O)Cn1cnc2ccccc2c1=O,-0.1%,i,1.3e-08,i,1%
Cc1cc(C)c(S(=O)(=O)N2CCN(C)CC2)c(C)c1,1.5%,nt,nt,nt,17%
O=C(c1ccco1)N1CCN(S(=O)(=O)c2ccc3c(c2)CCN3C(=O)C2CCC2)CC1,-1.1%,i,3.7e-09,i,0%[11.4 µM]
CCCCOCCCNC(=O)c1c(-c2ccccc2)noc1C,-0.3%,i,1.7e-09,i,2%
COCCN1C(=O)c2ccccc2C(C(=O)NCCCN2CCCC2)C1c1c[nH]c2ccccc12 (centres undefined),-0.9%,i,3.1e-08,i,-11%

# Exported with two lines to a compound: entries from further up.
# The line under a structure holds: AID923 | Resorufin autofl | A647 fluor | A488 fluor | TSHR ag
O=C(Nc1ccc(Cn2nnc3ccccc32)cc1)c1ccco1
  0.6% | i | 1e-09 | i | 10%
O=C(NCc1cccnc1)c1ccc(COc2ccccc2Br)o1
  -1.2% | i | 1.9e-09 | i | 19%
NC(=O)CSc1nnnn1CC(CC(=O)O)c1ccccc1 (centres undefined)
  0.1% | i | 1e-09 | i | ?
NC(=O)N/N=C\c1ccc([N+](=O)[O-])o1
  -0.4%[25.7 µM] | i | 6.2e-09 | i | 2%[25.6 µM]
OCCSc1c(F)c(SCCO)c(SCCO)c(F)c1SCCO
  -2.7% | i | 1e-09 | i | -2%
COC(=O)C1=C(C)[C@@H](O)[C@@H](C)[C@H](c2c(OC)c(OC)c(C)c(OC)c2OC)O1
  14%[11.5 µM] | nt | nt | nt | -4%[11.4 µM]
Cc1cc(C)cc(OCc2nnc(SCC(=O)N3CCN(c4ccccc4)CC3)o2)c1
  -0.8% | i | 7.6e-08 | i | 23%
COc1cccc(C(=O)CSc2nc3ccccc3n2CC(=O)N2CCOCC2)c1
  0.5% | i | 3.1e-08 | i | -3%
Cc1ccc(S(=O)(=O)NC(C)(C)CSc2nncn2N)cc1
  -0.1% | i | 1e-09 | i | -12%
O=C(N1CCOCC1)N1c2ccccc2CC(N2CCOCC2)c2ccccc21 (centres undefined)
  -1.7% | i | 5.5e-09 | i | -2%
CCOC(=O)c1cc2n(n1)C(C(F)(F)F)CC(C)N2 (centres undefined)
  -0.9% | i | 1e-09 | i | -2%

# Following part.
SMILES,AID923,Resorufin autofl,A647 fluor,A488 fluor,TSHR ag
c1nc(N2CCCCCC2)c2[nH]cnc2n1,3.2%,nt,nt,nt,0%
CC1CCN(C(=O)Cn2c(=O)n(CCc3ccccc3)c(=O)c3ccccc32)CC1,-0.9%,i,1.5e-08,i,?
CCOC(=O)C1CCCN(c2ncnc3c2oc2ccccc23)C1 (centres undefined),1.2%,i,1.5e-08,i,?
COC(=O)c1nnn(CC(=O)Nc2cc(Cl)ccc2C)c1C(=O)OC,-0.4%,i,1e-09,i,-3%
COc1ccc(N2CCN(C(=O)c3cccc(Cn4cc(Cl)cn4)c3)CC2)cc1,1.8%,i,1.4e-08,i,-4%
COc1ccccc1CNS(=O)(=O)c1ccc(NC(C)=O)cc1,-0.9%,i,4.2e-09,i,11%
COc1cc(C2C(C(N)=O)=C(C)Nc3nc(CCCO)nn32)cc(OC)c1OC (centres undefined),5.6%,nt,nt,nt,?
C=CC[C@@H]1C=C[C@H](O/N=C2\c3cc(OC)ccc3O[C@H](c3cccc(OC)c3)[C@H]2O)[C@H](CO)O1,4.8%[11.5 µM],nt,nt,nt,-1%[11.4 µM]
COc1cccc(OC)c1-c1nn2c(-c3cc(-c4ccccc4)n[nH]3)nnc2s1,-0.5%,i,3.4e-09,i,4%
C=CCn1c(SC2CCOC2=O)nc2scc(C3CC3)c2c1=O (centres undefined),0.5%,i,1e-09,i,26%
O=C(c1ccc(Cl)cc1)N1CCCOC1,0.9%,i,1e-09,i,-1%
O=S(=O)(Nc1nc2ccccc2nc1NCC1CCCO1)c1cccs1 (centres undefined),2.8%,i,1e-09,i,-7%
COc1ccccc1N1CCN(C(=O)c2cccc(N3C(=O)NC4CC3(C)Oc3ccccc34)c2)CC1 (centres undefined),-1.0%,i,6.1e-09,i,nt
COC(=O)c1[nH]c2cccc(OC)c2c1NC(=O)CCN1CC(C)CC(C)C1 (centres undefined),-1.5%,i,1e-09,i,2%
COc1cc(C(=O)Nc2nc3ccccc3[nH]2)cc(OC)c1OC,0.1%,i,1.5e-08,i,9%
CSc1nc(NC(C)C)nc(N2CCOCC2)n1,0.9%,i,1e-09,i,-3%
O=S(=O)(c1ccccc1)N1CCC2(CCN(c3ncccn3)CC2)CC1,1.2%,i,2.6e-09,i,1%
O=C(C1CCN(S(=O)(=O)c2cccs2)CC1)N1CCc2ccccc2C1,0.1%,i,5.1e-09,i,2%[11.4 µM]
Cc1ccc(-c2cc(C(F)(F)F)n3nc(C(=O)N4CCCC4)cc3n2)cc1,2.8%,nt,nt,nt,16%[11.4 µM]
CC(=O)Nc1ccc(Nc2ncnc3c2cnn3-c2cccc(C)c2)cc1,-0.9%,nt,nt,nt,-9%
O=C(Cn1nnc2ccccc2c1=O)N1CCCc2ccccc21,-1.4%,i,1e-09,i,-5%
COC(=O)[C@@]1(Cc2ccc(F)cc2)[C@H]2c3cc(C(=O)N4CCCC4)n(CCc4ccc(O)c(O)c4)c3C[C@H]2CN1C(=O)c1ccccc1,-1.4%,nt,nt,nt,?
COc1ccc(OC)c(C(=O)COC(=O)c2c(OC)cccc2OC)c1,-3.0%,i,1e-09,i,2%
COc1cccc(OCC(O)CN(CCO)Cc2ccccc2)c1 (centres undefined),-0.8%,i,2.7e-09,i,?
CCOC(=O)CNC(=O)CSc1ncnc2c1cnn2-c1ccc(OC)cc1,-0.3%,i,2.4e-08,i,2%
# Later entries:
SMILES,AID923,Resorufin autofl,A647 fluor,A488 fluor,TSHR ag
Cc1oc(-c2ccc(Cl)cc2)cc1-c1nn2c(-c3ccco3)nnc2s1,-3.4%,i,1.7e-08,i,nt
CCOC(=O)CCn1cc(F)c(=O)n(Cc2ccccc2)c1=O,-1.5%,nt,nt,nt,0%
COc1ccc(Cn2nnnc2C(C(C)C)N(Cc2ccco2)Cc2cccs2)cc1 (centres undefined),0.3%,i,2.5e-08,i,23%
CC(=O)Nc1ccc(Cc2ccncc2)cc1,-0.2%,i,1.4e-08,i,?
c1ccc(-c2ccccc2OCCn2cncn2)cc1,-0.8%,i,4.5e-08,i,6%
CCCn1nnnc1SCC(=O)NCc1ccccc1,-0.1%,i,2.6e-08,i,-3%
Clc1ccc2nc(N3CCNCC3)nc(-c3ccccc3)c2c1,nt,i,2.5e-08,i,nt
Brc1ccc(-c2nc(-c3ccccc3)no2)o1,-0.3%,i,5.8e-09,i,18%
CCCCCOc1ccc(Cl)cc1CN1CCOCC1,nt,i,6.3e-08,i,nt
Cc1nn(C)cc1CNC(=O)Nc1ccc(Br)cc1Cl,-1.3%,i,5.1e-08,i,24%
O=C1C2CCCN2C(c2ccccc2F)N1c1cccc(Cl)c1 (centres undefined),2.7%,nt,nt,nt,6%
COC(=O)[C@@]1(Cc2ccc(OC)cc2)[C@H]2c3cc(C(=O)N4CCCC4)n(CCn4cc([N+](=O)[O-])nc4C)c3C[C@H]2CN1C(=O)c1ccccc1,1.0%,nt,nt,nt,1%
O=C(c1cccnc1)N1C2CCC1CC(O)(c1ccc(F)cc1)C2 (centres undefined),-1.6%,i,8.7e-09,i,5%
Brc1ccc(-c2nn3c(-c4ccco4)nnc3s2)o1,3.5%,i,2.2e-08,i,3%
COCC(=O)N1CCC[C@@]2(CCN(C(=O)Nc3cccc(C#N)c3)C2)C1,2.5%,i,3.5e-09,i,0%
COc1ccc(OC)c(C2C(C(=O)Nc3cccnc3)=C(C)NC3=C2C(=O)CCC3)c1 (centres undefined),10%,i,1e-09,i,2%
CS(=O)(=O)c1ccc(Cl)c(C(=O)O)c1,8.8%,i,1e-09,i,5%
C=CCn1c(CCC(=O)O)ccc1-c1ccc(OC)cc1,8.3%,i,2.2e-08,i,2%
C=CCOC(=O)CCC(=O)Nc1cccc2ccccc12,0.8%,nt,nt,nt,4%
O=C(NCCN1CCOCC1)c1cc(-c2ccco2)on1,-0.8%,i,4.5e-09,i,7%
CC(=O)c1cc(-c2ccccc2)n(CCC(=O)NCc2cccs2)c1C,2.3%,i,1e-09,i,29%
COc1ccc(-c2cc(N)n(CCC#N)n2)c(OC)c1,-1.6%,i,2.3e-08,i,-4%
COc1ccc(-c2nnc(SCC(=O)N3CCCCC3)o2)c(OC)c1,-0.5%,i,4.4e-09,i,0%
O=C(Cn1ncc2c(=O)oc3ccccc3c21)NCC1CCCO1 (centres undefined),-1.0%,nt,nt,nt,3%
c1ccc2c3c([nH]c2c1)-c1[nH]ncc1CC3,5.7%,i,3.5e-09,i,?
CCOC(=O)C1CCN(C(=O)COc2ccc(Cl)cc2Cl)CC1,-0.9%,i,1.8e-09,i,7%
O=C1CC(SCc2nc3ccccc3[nH]2)C(=O)N1c1ccc(F)cc1 (centres undefined),2.3%,i,1.8e-08,i,-11%
CCOC(=O)NC[C@H](Cc1ccc(OCCc2nc(-c3ccccc3)oc2C)cc1)N/C(C)=C\C(=O)c1ccc(C(F)(F)F)cc1,4.9%,nt,nt,nt,2%
NCCCNCCCCNCCCN,-2.2%&-2.0%,i,5.7e-09,i,1%&-5%
CC(C)n1nnnc1SCC(=O)NCc1cccs1,-2.3%,i,4.2e-08,i,1%

# From PubChem BioAssay
